VDR inh = Inhibitors of the vitamin D receptor (VDR): qHTS; Vitamin D3 receptor (Homo sapiens), P11473; AID 504847, 2011; 0.93% of 400,000 active; Potency, µM, inactives show max response, negative = inhibition, hits mostly inhibitors; VDR-SRC2-3 peptide fluorescence polarization, 2 h; active = well fitted inhibition curve with a large enough effect; inconclusive = small, poorly fitted or top-dose-only effect, or another doubt; inactive = no such curve, though single readings can be large or run the other way; also: series mostly up to about 120 µM
Target sequence (P11473 whole entry, looked up): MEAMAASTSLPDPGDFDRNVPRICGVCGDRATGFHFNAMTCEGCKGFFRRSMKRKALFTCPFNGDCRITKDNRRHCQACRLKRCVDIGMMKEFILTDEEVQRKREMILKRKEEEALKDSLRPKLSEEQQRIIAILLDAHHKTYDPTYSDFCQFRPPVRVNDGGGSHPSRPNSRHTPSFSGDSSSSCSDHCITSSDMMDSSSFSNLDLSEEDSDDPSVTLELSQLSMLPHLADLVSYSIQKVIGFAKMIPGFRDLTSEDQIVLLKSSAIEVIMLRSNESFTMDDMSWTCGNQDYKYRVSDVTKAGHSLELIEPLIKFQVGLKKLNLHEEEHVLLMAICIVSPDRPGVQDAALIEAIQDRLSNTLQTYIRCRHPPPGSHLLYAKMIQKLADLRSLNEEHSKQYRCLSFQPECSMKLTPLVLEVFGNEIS
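Inhibition of the VDR/SRC2-3 peptide interaction is quantified by fluorescence polarization. Compounds (23 nl, pintool) incubate with the reagents for 2 hours at ambient room temperature.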
Starred values were filed as active, the others as inactive; ? = inconclusive; [ ] = dose if it differs, or a comment. % is scaled to controls: 0 for no effect and ±100 for the full control effect; potency is read from the fitted curve at half-maximal effect. The list is partial, so the mix of outcomes need not match the whole.

1) CC(=O)N1CCCc2cc(S(=O)(=O)N3CCc4ccccc4C3)ccc21
  VDR inh: 16%

2) CC(Sc1nc2ncc(Cl)cc2[nH]1)C(=O)c1c(N)n(C)c(=O)n(C)c1=O (configuration not stated)
  VDR inh: -11%

3) CCOC(=O)N1CCC(NC(=O)c2ccc3c(c2)N(Cc2ccc(F)cc2)C(=O)c2ccccc2S3(=O)=O)CC1
  VDR inh: 8%

4) Cc1cc(Cl)c2oc(C(=O)N(C)Cc3nccn3C)c(C)c2c1
  VDR inh: -11%

5) O=C(COc1ccc(Cl)cc1)NCCc1csc(-c2ccc(C(F)(F)F)cc2)n1
  VDR inh: -1%

6) COc1ccc(NS(=O)(=O)c2ccc(Oc3ncccn3)cc2)cc1
  VDR inh: -12%

7) CCc1nc2nc(C)c(NS(=O)(=O)c3ccc(F)c(C)c3)c(=O)n2[nH]1
  VDR inh: 5%

8) Cc1ccc(CNCc2ccc3c(c2)OCO3)cc1
  VDR inh: -16%

9) COc1ccc(CN2CCN(C(=O)Cn3nc(C(=O)O)c4ccccc4c3=O)CC2)cc1F
  VDR inh: 3%

10) Cc1cc(C(=O)N/N=C2\CCCc3ccccc32)c(C)o1
  VDR inh: 1%

11) COCc1cc(C)nc(SCc2ccc([N+](=O)[O-])cc2)c1C#N
  VDR inh: -10%

12) Cc1nn(-c2ccc(F)cc2)c(-n2cccc2)c1C(=O)N1CCN(C(=O)c2ccco2)CC1
  VDR inh: 0%

13) N#CC(C#N)=Cc1ccc(OC(=O)c2ccccn2)cc1
  VDR inh: ?

14) Cc1ccc(C(=O)COC(=O)c2ccc(-c3cnc4ccccc4n3)cc2)cc1C
  VDR inh: 10%

15) COc1cccc(CN(C)C(=O)c2ccccc2Sc2ccccc2C#N)c1
  VDR inh: -28%

16) CS(=O)(=O)N1CCN(c2ccccc2F)CC1
  VDR inh: 3%

17) Cc1ccc(-n2nnc(-c3nc(-c4cccs4)no3)c2N)c(C)c1
  VDR inh: 11%

18) COc1cc(C)c(NC(=O)COc2ccc3c(c2)OCO3)cc1C
  VDR inh: 10%

19) Cc1ccc(-c2cnc(NCc3ccc(C(C)C)cc3)n2C)cc1
  VDR inh: -12%

20) CN(CC(=O)Nc1ccc(F)cc1)C(=O)COC(=O)c1cc([N+](=O)[O-])ccc1N1CCOCC1
  VDR inh: -12%

21) O=C(O)c1sc2cc(C(F)(F)F)cnc2c1-c1cccs1
  VDR inh: -13%

22) COCC(=O)N(Cc1cc2ccc(C)cc2[nH]c1=O)c1ccc(C)cc1C
  VDR inh: 6%

23) COc1ccc(C2Nc3ccc(NC(=O)COC(C)=O)cc3C(=O)N2Cc2ccccc2)cc1COc1ccc(NC(C)=O)cc1 (configuration not stated)
  VDR inh: -3%

24) CCOc1ccccc1NC1=C(Cl)C(=O)N(c2ccc(OC)cc2)C1=O
  VDR inh: ?

25) Cc1ccc(-c2cc(C(F)(F)F)n3nc(-c4ccc(Cl)cc4)cc3n2)cc1
  VDR inh: 1%

Three of the compounds above, with values ahead of the structure:
cpd | VDR inh | SMILES
11 | -10% | COCc1cc(C)nc(SCc2ccc([N+](=O)[O-])cc2)c1C#N
12 | 0% | Cc1nn(-c2ccc(F)cc2)c(-n2cccc2)c1C(=O)N1CCN(C(=O)c2ccco2)CC1
13 | ? | N#CC(C#N)=Cc1ccc(OC(=O)c2ccccn2)cc1

Returning to the listing, starting 4 compounds before the break.
22) COCC(=O)N(Cc1cc2ccc(C)cc2[nH]c1=O)c1ccc(C)cc1C
  VDR inh: 6%

23) COc1ccc(C2Nc3ccc(NC(=O)COC(C)=O)cc3C(=O)N2Cc2ccccc2)cc1COc1ccc(NC(C)=O)cc1 (configuration not stated)
  VDR inh: -3%

24) CCOc1ccccc1NC1=C(Cl)C(=O)N(c2ccc(OC)cc2)C1=O
  VDR inh: ?

25) Cc1ccc(-c2cc(C(F)(F)F)n3nc(-c4ccc(Cl)cc4)cc3n2)cc1
  VDR inh: 1%

26) CN1CCN(C(=O)c2ccc(S(=O)(=O)c3ccc(Br)cc3)cc2)CC1
  VDR inh: -6%

27) COCCOC(=O)c1[nH]c2c(c1C)C(=O)CC(c1cc(OC)ccc1OC)C2 (configuration not stated)
  VDR inh: -7%

28) N#Cc1ccccc1CSc1nc2ccc(NC(=O)c3ccccc3C(=O)O)cc2s1
  VDR inh: -17%

29) Cc1cc(C(=O)Nc2c(C)n(C)n(-c3ccccc3)c2=O)on1
  VDR inh: 9%

30) CCc1cc(C(=O)OC)c(NC(=O)CC2Sc3ccc(C(F)(F)F)cc3NC2=O)s1 (configuration not stated)
  VDR inh: 3%

31) CSc1ccc(NC(=O)Nc2cccn(Cc3ccccc3)c2=O)cc1
  VDR inh: 0%

32) Cc1ccccc1NC(=O)NC1(C(=O)NCc2ccco2)CCCCC1
  VDR inh: -3%

33) COCc1cc(C)nc(OCC(=O)N/N=C/c2ccc(OC)c(O)c2)c1C#N
  VDR inh: -16%

34) CCCS(=O)(=O)N1CCN=C1SCc1ccc(C)cc1
  VDR inh: -5%

35) Nc1ccccc1Nc1ccc([N+](=O)[O-])cc1[N+](=O)[O-]
  VDR inh: 4%

36) CC1(C(=O)OCC(=O)Nc2ccccc2Cl)CC1(Cl)Cl (configuration not stated)
  VDR inh: 7%

37) O=C(Nc1ccccc1C(=O)O)c1cc(S(=O)(=O)N2CCCCCC2)ccc1Cl
  VDR inh: -8%

38) Cc1cc(C)c2cc(C#N)c(SCC(=O)NCC3CCCO3)nc2c1 (configuration not stated)
  VDR inh: 45%[activator]

39) NC(=O)CSc1nnc(Cc2csc(Nc3ccc(F)cc3)n2)n1Cc1ccccc1
  VDR inh: 12%

40) CCn1c(SCC(=O)Nc2ccc(C(C)=O)cc2)nc2nc3c(cc2c1=O)CCCC3
  VDR inh: 15%

41) Cc1occc1C(=O)NCc1ccccc1F
  VDR inh: -13%

42) O=C1C=C(NCCOC23CC4CC(CC(C4)C2)C3)C2(CCCCC2)O1
  VDR inh: -1%

43) CCS(=O)(=O)Nc1cc(C(=O)OC)ccc1C(=O)OC
  VDR inh: -10%

44) O=C(NCC1CCCO1)c1ccc(COc2ccc(Br)cc2)cc1 (configuration not stated)
  VDR inh: -19%

45) COc1ccc(CN(C)C(=O)Cc2ccc(OC)c(S(=O)(=O)N3CCOCC3)c2)cc1
  VDR inh: 11%

46) O=C(CC1CCCCC1)NCc1ccccn1
  VDR inh: 6%

47) c1cncc(C2OCC3(CO2)COC(c2cccnc2)OC3)c1 (configuration not stated)
  VDR inh: -1%

48) Cc1ccc2nc(-c3ccc(NC(=O)c4cccnc4)cc3)oc2c1
  VDR inh: 13%

49) Nc1ncnc2c1ncn2[C@@H]1O[C@H](CNC(=O)[C@@H]2CCN2)[C@@H](O)[C@H]1O
  VDR inh: 4%

50) CCOC(=O)C(C)Sc1nc(=O)n2cc(C)ccc2n1 (configuration not stated)
  VDR inh: 5%

51) CCOC(=O)c1[nH]c(C)c(C(=O)NC(C)(C)C)c1C
  VDR inh: 11%

52) CCOc1ccc2[nH]c(=O)c(CN(CCO)C(c3nnnn3C3CCCCC3)C(C)C)cc2c1 (configuration not stated)
  VDR inh: -18%

53) CC(C)NC(=O)c1cc(-c2cccs2)on1
  VDR inh: 1%

54) Cc1c(C)c2ccc(OC(C)C(=O)NCCCn3ccnc3)c(C)c2oc1=O (configuration not stated)
  VDR inh: -3%

55) O=C(Nc1ccc(Cl)cn1)c1cccc(S(=O)(=O)N2CCCC2)c1
  VDR inh: -2%

56) N#Cc1cccc(CSc2ncnc(N)n2)c1
  VDR inh: 4%

57) CN(C)c1cc2c(cc1NC(=O)c1ccccc1Cl)n(C)c(=O)n2C
  VDR inh: -19%

58) CC(=O)N[C@H]1CSSC[C@@H](C(=O)N2CCC[C@H]2C(=O)N2CCC[C@H]2C(=O)N[C@@H](CCCCN)C(=O)N[C@@H](CC(=O)O)C(N)=O)NC(=O)CNC(=O)[C@H](Cc2c[nH]c3ccccc23)NC(=O)[C@H](CCCNC(=N)N)NC(=O)[C@@H](Cc2ccc3ccccc3c2)NC(=O)[C@H](Cc2cnc[nH]2)NC(=O)[C@H](CCC(=O)O)NC1=O
  VDR inh: -2%

59) O=C(c1c[nH]c2ccccc12)C(O)C(c1ccccc1)N1CCOCC1 (configuration not stated)
  VDR inh: 0%

60) CC(C)(C)C(=O)N1CCc2cc(-c3csc(N)n3)ccc21
  VDR inh: -2%

61) CCOC(=O)N1CCc2c(sc(NC(=O)c3ccc(S(=O)(=O)N4CCCC4)cc3)c2C#N)C1
  VDR inh: ?

62) Cc1nc2c(C)cccn2c1/C(O)=C1\C(=O)C(=O)N(CCN2CCOCC2)C1c1ccncc1 (configuration not stated)
  VDR inh: -10%

63) CC1=C(C(=O)Nc2ccccc2)C(c2ccco2)C(C#N)=C(SCC(N)=O)N1 (configuration not stated)
  VDR inh: -5%

64) CC(C)CCn1c(=O)c2ccccc2n2c(=S)[nH]nc12
  VDR inh: -13%

65) Cc1ccc2nc3c(cc(C(=O)NCc4ccco4)c(=N)n3Cc3ccco3)c(=O)n2c1
  VDR inh: -7%

66) N#Cc1ccc2ccn(CC(=O)NCc3ccccc3)c2c1
  VDR inh: -5%

67) COc1ccc(CCNC(=O)CSc2ccsc2[N+](=O)[O-])c(OC)c1
  VDR inh: -10%

68) COc1ccccc1/C=C/C(=O)NCC(=O)N1CCC(N(C)C2CCCC2)CC1
  VDR inh: -1%

69) COc1ccc(NC(=O)Cn2c(=O)oc3cc(S(=O)(=O)N4CCC(C)CC4)ccc32)c(OC)c1
  VDR inh: -6%

70) CN(C)C(=O)c1c(NC(=O)c2ccccc2)sc2c1CCC2
  VDR inh: 9%

71) O=C(NCCC(=O)N(Cc1ccco1)Cc1cccs1)c1ccccc1Cl
  VDR inh: -4%

72) C#CCNc1cc(-c2ccccc2)nc2ncnn12
  VDR inh: -6%

73) COC(=O)c1cnc(Oc2ccc(NC(=O)NC(=O)c3c(F)cccc3F)cc2)cc1C(F)(F)F
  VDR inh: -23%

74) CC1CCC(NS(=O)(=O)c2ccc(Cl)s2)CC1 (configuration not stated)
  VDR inh: -9%

75) COC(=O)c1cc(NC(=O)c2cc(-c3ccc(OC)cc3)oc2C(F)(F)F)ccc1N1CCOCC1
  VDR inh: -4%

Retrieved one by one from the list above:
62) Cc1nc2c(C)cccn2c1/C(O)=C1\C(=O)C(=O)N(CCN2CCOCC2)C1c1ccncc1 (configuration not stated)
  VDR inh: -10%

30) CCc1cc(C(=O)OC)c(NC(=O)CC2Sc3ccc(C(F)(F)F)cc3NC2=O)s1 (configuration not stated)
  VDR inh: 3%

47) c1cncc(C2OCC3(CO2)COC(c2cccnc2)OC3)c1 (configuration not stated)
  VDR inh: -1%

32) Cc1ccccc1NC(=O)NC1(C(=O)NCc2ccco2)CCCCC1
  VDR inh: -3%

(listing goes on)
76) Cc1ccc(OCCN2C(=O)NC3(CCc4ccccc4C3)C2=O)cc1 (configuration not stated)
  VDR inh: 21%

77) Cc1c(NC(=O)C(C)OC(=O)c2cccnc2)c(=O)n(-c2ccccc2)n1C (configuration not stated)
  VDR inh: -6%

78) CC1(c2ccccc2)CC(C)(C)N(C(=O)c2ccccc2Cl)c2ccccc21 (configuration not stated)
  VDR inh: 0%

79) COC(=O)c1ccccc1NC(=O)Nc1ncccc1C
  VDR inh: -17%

80) Cc1nc2ccccn2c1/C(O)=C1\C(=O)C(=O)N(CCCn2ccnc2)C1c1ccncc1 (configuration not stated)
  VDR inh: -8%

81) CCN1CCN(c2oc(-c3ccc(COc4ccc(C)cc4)o3)nc2C#N)CC1
  VDR inh: 1%

82) CCCCc1cc(=O)oc2cc(OCC(=O)Nc3ccccn3)ccc12
  VDR inh: -6%

83) COc1ccccc1N1CCN(C(=O)CCS(=O)(=O)c2cc(Br)cc3c2N(C(C)=O)CC3)CC1
  VDR inh: -6%

84) Cc1nnc(NC(=O)c2ccccc2Br)s1
  VDR inh: 15%

85) Cc1ccccc1NC(=O)Cn1c(=O)n(CCCCCC(=O)NCc2ccc3c(c2)OCO3)c(=O)c2sccc21
  VDR inh: -5%

86) O=C(O)C1CC(=O)N(c2ccc(OCc3c(F)cccc3Cl)cc2)C1 (configuration not stated)
  VDR inh: 0%

87) COc1cc(N(C)C)c([N+](=O)[O-])cc1C(=O)N1CCN(Cc2ccccc2)CC1
  VDR inh: 8%

88) O=C(NNC(=S)NCc1ccccc1)c1ccc(OC(F)F)cc1
  VDR inh: 11%

89) COC(=O)[C@]1(Cc2ccccc2)N[C@H](c2ccc(-c3ccc(OC)cc3)cc2)[C@@H]2C(=O)N(C)C(=O)[C@@H]21
  VDR inh: -6%

90) O=C(NCc1ccccn1)C1CCN(S(=O)(=O)c2ccccc2C(F)(F)F)CC1
  VDR inh: -5%

91) CCOC(=O)c1sc(=S)n(-c2ccccc2OC)c1N
  VDR inh: -29%

92) O=C(c1cnc2sccn2c1=O)N1CCN(c2ccccc2Cl)CC1
  VDR inh: -6%

93) CCOP(=O)(OCC)C(Nc1cccc(C(F)(F)F)c1)c1ccc(C)cc1 (configuration not stated)
  VDR inh: 1%

94) CCCCC(=O)Nc1cccc(-c2ccc3nncn3n2)c1
  VDR inh: 6%

95) O=c1cc(C(F)(F)F)[nH]c2c(OC(F)(F)F)cccc12
  VDR inh: -5%

96) COc1cc(C=O)c(Br)cc1OC1CCCC1
  VDR inh: 2%

97) COc1ccccc1/C=C1\C(=O)Nc2ccccc21
  VDR inh: -28%

98) O=C(CSc1nncc(=O)[nH]1)NC1CCCCC1
  VDR inh: -29%

99) O=C1CCSc2ccc(Cl)cc2N1Cc1ccccc1
  VDR inh: -8%

Part of the list above, set out differently.
| entry | VDR inh | structure |
| --- | --- | --- |
| 39 | 12% | NC(=O)CSc1nnc(Cc2csc(Nc3ccc(F)cc3)n2)n1Cc1ccccc1 |
| 42 | -1% | O=C1C=C(NCCOC23CC4CC(CC(C4)C2)C3)C2(CCCCC2)O1 |
| 11 | -10% | COCc1cc(C)nc(SCc2ccc([N+](=O)[O-])cc2)c1C#N |
| 64 | -13% | CC(C)CCn1c(=O)c2ccccc2n2c(=S)[nH]nc12 |

Compound activity from PubChem BioAssay.
